Screens deposited in PubChem BioAssay by National Center for Advancing Translational Sciences (NCATS).
VACV mCherry inh: qHTS for Stage-Specific Inhibitors of Vaccinia Orthopoxvirus: mCherry Reporter Primary qHTS | Vaccinia virus mCherry reporter infection, fluorescence; about a quarter of the inactives have no number | Potency, µM (highest dose often 36.5 µM), for the others: top-dose activity change, negative = inhibition, usual class: inhibitors | 0.63% of 310,000 active | AID 720579, 2013; active = well fitted inhibition curve with a large enough effect; inconclusive = small, poorly fitted or top-dose-only effect; inactive = no such curve, though single readings can be large or run the other way; tested in A549 cells; also: nearly all actives have a fitted effect of over 35% in size; inactives centre near -10
VACV Venus inh: qHTS for Stage-Specific Inhibitors of Vaccinia Orthopoxvirus: Venus Reporter Primary qHTS. Vaccinia virus Venus reporter expression, fluorescence. Potency, µM (titrated, usually from 36.5 µM), without a hit: top-dose activity change, negative = inhibition, most hits filed as inhibitors. 0.46% of 330,000 active; active means well fitted inhibition curve with a large enough effect; inconclusive means small, poorly fitted or top-dose-only effect; inactive means no such curve, though single readings can be large or run the other way; tested in A549 cells; also: nearly all actives have a fitted effect of over 30% in size; inactives centre near -10
* = called active by the depositor; i = inactive; u = inconclusive; x = not tested or not shown; & = joins results of further samples; [ ] = dose if it differs, or a comment. % is scaled to controls: 0 for no effect and ±100 for the full control effect; potency is read from the fitted curve at half-maximal effect. Not a hit list (roughly 0.82% active in at least one column).

SMILES | VACV mCherry inh | VACV Venus inh
CCCCCn1c(=O)[nH]c2cc(C(=O)NCCN3CCC(C)CC3)ccc2c1=O | -10.0% | -4.5%
Nc1nc(-c2ccc(NC(=O)c3ccco3)cc2)cs1 | u | u
N/C(=N\OCC(=O)Nc1ccccc1)c1nonc1N | i | -8.9%
COc1ccc(N2CCN(C(=O)c3ccc(C)cc3)CC2)c([N+](=O)[O-])c1 | -6.6% | -10.5%
Cn1nc2c3ccccc3n(Cc3ccccc3)c2nc1=S | 1.1% | -0.8%
COc1ccc(OC)c(NC(=O)c2cn(CC(C)C)c(=O)c3cc(OC)c(OC)cc23)c1 | -16.8% | 1.3%
CC1CC[C@@]23CCC4(C)[C@@]5(C)CCC6C(C)(C)C(=O)CC[C@@]6(C)C5C=C[C@@]4(OC2=O)C3C1C (some centres not stated) | -10.9% | -3.5%
CCCCc1c(O)nc(SCC(=O)c2ccccc2)n(-c2ccccc2)c1=O | -8.5% | 11.8%
O=C(CC1S/C(=N/N=C2CCCCCC2)NC1=O)Nc1ccc(Br)cc1F (configuration not stated) | -23.2% | -22.7%
C/C(=N\NC(=O)C1(C)CC1(Br)Br)c1ccc(NC(=O)c2ccc(C)o2)cc1 (configuration not stated) | -23.2% | -14.8%
O=C(CCCCCn1c(=O)[nH]c2ccccc2c1=O)NCCCN1CCN(c2ccccc2F)CC1 | i | -19.2%
COCOCCn1cc(CN2CCS(=O)(=O)N(Cc3ccc(-c4ccc(OC)c(OC)c4)cc3)C(C)C2=O)nn1 (configuration not stated) | -12.7% | -7.8%
O=C(COc1nsnc1N1CCOCC1)Nc1ccc([N+](=O)[O-])cc1 | -4.1% | 16.1%
O=C(C1CCN(S(=O)(=O)Cc2ccccc2)CC1)N1CCN(c2cccc(C(F)(F)F)c2)CC1 | 0.6% | 9.1%
CN1C(=O)NC(c2ccc(O)cc2)C2=C1CN(c1ccccc1)C2=O (configuration not stated) | -14.7% | -5.6%
CN1OC[C@@H]2CN(C(=O)C(C)(C)C)[C@H](c3ccc(-n4ccnc4)cc3)C[C@@H]21 | i | -6.8%
CN(C)C(=O)CCc1ccc2c3c([nH]c2c1)[C@]1(C)[C@@H](C(=O)N2CCCCC2)C[C@H](CC(=O)NCCCn2ccnc2)C(=O)N1CC3 | i | -15.7%
Cn1c(=O)c2[nH]c(Cc3ccsc3)nc2n(C)c1=O | -20.4% | -9.6%
Cc1cc(OCC(=O)NCC(O)c2ccccc2)c2c(C)c(C)c(=O)oc2c1 (configuration not stated) | 6.4% | 8.6%
O=C(COC(=O)CCc1ccccc1)NC(c1ccccc1)c1ccccc1 | -11.8% | -7.0%
CC(C)(C)NC(=O)C(c1ccncc1)N(C(=O)Cn1nnc(-c2ccc(F)cc2)n1)c1cccc(F)c1 (configuration not stated) | -18.4% | -11.8%
CCOC(=O)/C(=C\c1ccc([N+](=O)[O-])cc1)C(=O)c1cc(C(C)=O)c(Nc2ccccc2)s1 | x | -10.0%
O=c1[nH]c(=S)n(C2CC2)c(O)c1/C=N/Nc1cccc2ccccc12 | i | 39.8%[activator]
CCNC(=O)C1(C)CCN(C(=O)c2cc(F)ccc2C)C1 (configuration not stated) | 2.2% | 0.6%
O=c1c2cn[nH]c2nc(SCc2ccccc2F)n1-c1ccc(Br)cc1 | -8.9% | -1.8%
N#CCSc1nc2ccccc2c(=O)n1-c1ccccc1 | u | -20.1%
Cc1ccc(-c2nnn(CC(=O)N(c3ccc(F)cc3)C(C(=O)NC3CCCC3)c3ccncc3)n2)o1 (configuration not stated) | -14.2% | -3.9%
CCNC(=O)C1(C)CCCN(C(=O)Cc2ccc(OC)c(OC)c2)C1 (configuration not stated) | i | 5.9%
CC(=O)Nc1c(-c2ccc(Cl)cc2)c(=O)c2ccccc2n1C | -3.1% | -10.2%
CCN(CC)CCn1c(=N)n(CCO)c2ccccc21 | i | 0.0%

Shown tab-delimited: entries from further up.
SMILES	VACV mCherry inh	VACV Venus inh
Cn1nc2c3ccccc3n(Cc3ccccc3)c2nc1=S	1.1%	-0.8%
O=c1[nH]c(=S)n(C2CC2)c(O)c1/C=N/Nc1cccc2ccccc12	i	39.8%[activator]
CCCCCn1c(=O)[nH]c2cc(C(=O)NCCN3CCC(C)CC3)ccc2c1=O	-10.0%	-4.5%

In another format: two of the compounds above
| structure | VACV mCherry inh | VACV Venus inh |
| --- | --- | --- |
| O=C(CCCCCn1c(=O)[nH]c2ccccc2c1=O)NCCCN1CCN(c2ccccc2F)CC1 | i | -19.2% |
| Cn1nc2c3ccccc3n(Cc3ccccc3)c2nc1=S | 1.1% | -0.8% |

Continuation.
SMILES | VACV mCherry inh | VACV Venus inh
Cc1ccc(-n2cc(-c3ccccc3)c3c(N4CCN(C)CC4)ncnc32)cc1 | i | 2.3%
Cc1cccc(-c2ccc3[nH]c4c(c3c2)CCN2C[C@@H]([C@H](C)OC(=O)Nc3ccccc3C)[C@@H](N(C)C(=O)Nc3ccccc3C)C[C@@H]42)c1 | -10.9% | -12.3%
CCn1cc(C(=O)N[C@@H](C)C(=O)NCCCO)c(=O)c2cc3c(cc21)OCO3 | -4.8% | 1.0%
Cc1cc(N2CCCC2=O)cc(C)c1CN1C(=O)c2ccccc2C1=O | i | -10.5%
CCc1ccccc1Nc1nn2c(=O)c3ccc(C(=O)NC(C)c4ccccc4)cc3nc2s1 (configuration not stated) | -23.7% | -28.3%
O=C(NCC1CC1)c1cccc2c(-c3ccc(F)c(F)c3)coc12 | 21.9% | -7.6%
CCCCCNC(=O)c1ccc2c(=O)n(CCc3ccccc3)c(=O)[nH]c2c1 | -1.4% | 1.7%
CC1CCC(NC(=O)CNC(=O)Cc2cccc3ccccc23)CC1 (configuration not stated) | -19.0% | -13.1%
C=CCn1c(SCC(=O)N(CC)C2CCS(=O)(=O)C2)nc2scc(-c3ccccc3)c2c1=O (configuration not stated) | -18.7% | -18.0%
CCOC(=O)CC(NC(=O)c1ccccc1F)c1ccc(C)cc1 (configuration not stated) | 0.2% | 1.2%

Continued; the last 3 above are carried over.
SMILES | VACV mCherry inh | VACV Venus inh
CC1CCC(NC(=O)CNC(=O)Cc2cccc3ccccc23)CC1 (configuration not stated) | -19.0% | -13.1%
C=CCn1c(SCC(=O)N(CC)C2CCS(=O)(=O)C2)nc2scc(-c3ccccc3)c2c1=O (configuration not stated) | -18.7% | -18.0%
CCOC(=O)CC(NC(=O)c1ccccc1F)c1ccc(C)cc1 (configuration not stated) | 0.2% | 1.2%
CCOP(=O)(OCC)C(O)c1cccc([N+](=O)[O-])c1 (configuration not stated) | i | -7.5%
Cc1cncn1CCc1nc2c3ccccc3nc(SCC(=O)Nc3ccc(F)cc3)n2n1 | -2.5% | 9.5%
O=C(OCc1ccc([N+](=O)[O-])cc1)C1CC(=O)N(c2ccccc2)C1 (configuration not stated) | -12.3% | -14.6%
CC(C)Cc1nnc(NC(=O)CSc2nc(O)c(-c3ccccc3)c(=O)[nH]2)s1 | i | -5.6%
O=C(Nc1ccccc1[N+](=O)[O-])C1COc2ccccc2O1 (configuration not stated) | -14.4% | -6.2%
COc1ccc(CN2CCNC(=O)C2CC(=O)NCc2cnn(C)c2)cc1OC (configuration not stated) | -7.1% | -6.5%
O=C(CCCOc1ccccc1)N1CCN(c2ccccn2)CC1 | i | -23.8%
N#Cc1ccc(S(=O)(=O)NC[C@H]2O[C@@H](n3ccc(N)nc3=O)[C@H](O)[C@@H]2O)cc1 | -29.1% | -10.4%
Fc1ccc(Cn2cnc3ccccc32)cc1 | -15.6% | -19.4%
COC(=O)c1ccc(S(=O)(=O)NCc2ccc(S(N)(=O)=O)cc2)n1C | -6.4% | -1.4%
CCCc1cc(=O)n2[nH]c(NCc3ccc(OC)c(OC)c3)nc2n1 | -11.0% | -5.4%
Cc1nc(CC(=O)Nc2nc(-c3ccccc3)cs2)cs1 | i | -8.2%
N#Cc1c(N)[nH]c2ccc(Sc3ccccc3)cc12 | u | u
O=C(CCSCCc1ccccn1)Nc1nccs1 | i | -8.1%
C[C@H]1CN([C@@H](C)CO)C(=O)CCCn2cc(nn2)CO[C@@H]1CN(C)S(=O)(=O)c1ccc(Cl)cc1 | -20.6% | -7.5%
CS(=O)(=O)Nc1ccc(C(=O)NCc2ccco2)cc1 | i | -4.4%
Cc1c(NC(=O)Nc2cccc([N+](=O)[O-])c2)c(=O)n(-c2ccccc2)n1C | i | 6.6%
CC(NC(=O)c1ccc2c(=O)n3c(nc2c1)CCCCC3)c1ccccc1 (configuration not stated) | i | -15.5%
N#CCCN(Cc1cccnc1)C(=S)NC(=O)c1ccccc1 | i | -3.7%
O=C(Cc1cccs1)N1CCN=C1SCc1ccccc1Cl | 0.9% | -6.9%
C=CCSc1nc2sc(-c3ccccc3)cc2c(=O)n1N | -7.7% | -7.1%
CN(C(=O)c1cccc(NC(=O)Cc2ccc(NC(=O)C3CCN(S(=O)(=O)c4cccc([N+](=O)[O-])c4)CC3)cc2)c1)C1CC1 | i | -12.2%
CN(C)S(=O)(=O)c1cccc(C(=O)N2CCN(S(=O)(=O)c3ccc4c(c3)OCCO4)CC2)c1 | -24.4% | -7.7%
COc1ccc(-c2noc(Cn3c(=O)c4ccccc4n(CC(=O)Nc4cccc(OC)c4)c3=O)n2)cc1 | -10.2% | -10.5%
Cc1cc(C)c(S(=O)(=O)ON2C(=O)c3ccccc3C2=O)cc1C | -12.0% | -1.3%
CC(C)C[C@H]1C(=O)N2CCCC2[C@]2(O)O[C@](NC(=O)[C@@H]3C=C4c5cccc6[nH]cc(c56)CC4N(C)C3)(C(C)C)C(=O)N12 (some centres not stated) | -1.2%&-14.4% | 25.1%&6.1%
COc1ccc(Cc2c(-c3cccc(Cl)c3)nc3ccc(Cl)cn23)c(C)c1 | i | 12.6%
CCSc1nnc(NC(=O)c2nc3nc(C)cc(C)n3n2)s1 | -6.5% | -3.2%
CCC[C@H]1CN(Cc2cccnc2)C(=O)[C@@H]1CC(=O)Nc1ccc(Br)cc1 | i | -14.3%
NS(=O)(=O)c1ccc(CNC(=O)CC23CC4CC(CC(C4)C2)C3)cc1 | x | -16.5%
COc1ccc(CCN2CC(C(=O)NCc3cn(C)nc3C)CCC2=O)cc1 (configuration not stated) | -21.7% | -3.4%
CCN1CCN(C(=O)c2ccc(-c3nc4ccccc4s3)s2)CC1 | -21.9% | -19.6%
COc1c(F)c(F)c(C(=O)Nc2cccc(Cl)c2N2CCOCC2)c(F)c1F | x | -11.9%
CC(C)(C)[C@@H]1C=C(C(=O)N2CCN(Cc3ccc4c(c3)OCO4)CC2)O[C@H](OCc2ccc(CO)cc2)C1 | u | u
Cc1ccc(S(=O)(=O)n2ccc(OC(=O)c3cccs3)n2)cc1 | i | -12.6%
CCOC(=O)N1CCN(C(=O)c2cnn3c(C(F)(F)F)cc(-c4cccs4)nc23)CC1 | i | -24.3%
O=C1NCCN1CCNc1nc(NCc2ccccc2)nc2ccsc12 | u | u
Cc1nc2ccc(S(=O)(=O)N(C)CC(=O)Nc3ccc(C(C)C)cc3)cc2s1 | -10.5% | -7.7%
Cc1nnc2ccc(N3CCOCC3)nn12 | x | 7.9%
CCc1cc2c3c(c1)C(C)CC(C)(C)N3C(=O)C2=O (configuration not stated) | -3.7% | -23.2%
O=C(Nc1ccc(Cl)cc1)c1ccc2c(c1)OCO2 | -10.2% | -23.1%
O=C(NCCCN1CCC(Cc2ccccc2)CC1)C1CC(=O)N(C2CCCC2)C1 (configuration not stated) | i | -5.9%
Cc1ccc(-c2nn(-c3ccc(F)cc3)cc2C(=O)N(C)CC(=O)Nc2ccc(N3CCOCC3)cc2)cc1 | u | 0.3%
CCCC(=O)N1CCC1(C)C(=O)Nc1ccc(C)cc1 (configuration not stated) | 9.5% | -2.9%
Cc1ccc(C(=O)/C=C/c2ccco2)c(O)c1 | -14.4% | -6.2%
CNC(=S)Nc1ccc(C23CC4CC(CC(C4)C2)C3)cc1 | -13.7% | -20.7%
CCCc1[nH]nc2c1C(c1ccc(OC(=O)N3CCOCC3)c(OC)c1)C(C#N)=C(N)O2 (configuration not stated) | -8.3% | -3.1%
Cc1ccc(Cc2c(-c3ccccc3)nc3cc(C)ccn23)cc1 | -18.5% | -16.1%
CSc1nc(Cl)c(Cc2ccc(OC(C)C)cc2)c(N2CCOCC2)n1 | x | -23.2%
CCn1c(SCc2nc3ccccc3nc2C)nnc1-c1cccs1 | i | -21.6%

Other records:
SMILES | VACV mCherry inh | VACV Venus inh
CCN1CCN(c2nc(-c3cccs3)nc3ccccc23)CC1 | -10.5% | -8.6%
COC(CSc1nc(N)c2c3c(sc2n1)CN(C)CC3)OC | i | -7.5%
COc1ccc(/C=C2\SC(=O)N(CCC(=O)N3CCCCC3CCO)C2=O)cc1 (configuration not stated) | -3.4% | -12.7%
O=C(NCC(=O)N(c1cccnc1)C(C(=O)NC1CCCC1)c1ccccc1F)c1ccco1 (configuration not stated) | -18.5% | -4.4%
Cc1ccc(NC(=O)c2oc3ccc(S(=O)(=O)N4CCCCCC4)cc3c2C)cc1Cl | -26.1% | -16.6%
Cn1c(C2=C(O)CN(Cc3ccccc3)C2=N)nc2ccccc21 | -11.1% | -1.8%
COc1nc2ccccc2nc1N1CC1 | u | u
O=C(OCCO)c1c(-c2ccccc2)oc2c1C(OCCO)CCC2 (configuration not stated) | -2.9% | -2.1%
COc1ccc(Nc2ncnc3sc4c(c23)CCCC4)cc1 | -9.1% | -10.5%
Cc1ccc2c(CN3CCCCC3C)cc(=O)oc2c1C (configuration not stated) | i | 2.7%
Cc1ccc2onc(CNC(=O)N3CCN(c4cccc(C(F)(F)F)c4)CC3)c2c1 | -3.0% | -7.2%
